GLA inh pH 4.5 = inhibitors of human alpha-galactosidase A at pH 4.5; P06280; purified enzyme, 4-MU-alpha-Gal fluorescence, pH 4.5; activity change, negative = inhibition, % at 105 µM; 230,000 tested, under 10 active; AID 1467; inconclusive = small, poorly fitted or top-dose-only inhibition, or a rising curve; inactive = flat fitted curve, though single readings scatter; no compound was filed as active;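 further: 0% = full activity with enzyme and -100% = basal without enzyme; dose as in the result columns while the protocol names 77 µM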
Target sequence (P06280 whole entry, looked up): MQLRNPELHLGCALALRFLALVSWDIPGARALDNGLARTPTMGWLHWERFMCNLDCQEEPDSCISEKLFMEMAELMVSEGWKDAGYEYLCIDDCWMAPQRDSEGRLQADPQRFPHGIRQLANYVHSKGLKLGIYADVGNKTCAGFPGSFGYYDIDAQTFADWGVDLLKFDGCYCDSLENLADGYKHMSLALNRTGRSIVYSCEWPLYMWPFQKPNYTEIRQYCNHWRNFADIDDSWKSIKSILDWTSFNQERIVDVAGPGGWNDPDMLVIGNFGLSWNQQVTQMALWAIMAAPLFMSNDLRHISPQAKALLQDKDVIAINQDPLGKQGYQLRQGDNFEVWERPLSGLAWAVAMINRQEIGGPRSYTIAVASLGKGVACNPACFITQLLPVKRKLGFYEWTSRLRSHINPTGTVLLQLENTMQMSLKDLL
miR-21 reporter = raises the signal of a miR-21 reporter. 340,000 tested, under 10 active. HeLa miR-21 FLuc reporter, luciferase, 48 h. AID 2288. Potency, µM (highest dose often 38.3 µM), for the others: at the highest dose reporter change, positive = more light; active = well fitted rising curve with a large enough effect; inconclusive = small, poorly fitted or top-dose-only effect; inactive = no such curve, though single readings can be large or run the other way;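 further: % of control where 0% means no effect; miR-21 action dims this reporter so a rising signal means less miR-21 action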
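HeLa miR-21-FLuc reporter line, endogenous miR-21; 2000 cells/well in DMEM/10% FBS; compound titration up to ~40uM final, 48 h, 37 degree Celsius; luciferase detection reagent, 15 min lysis, CCD luminescence.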
Rango dissoc inh = inhibition of RanGTP-driven Rango-importin beta dissociation; Biochemical FRET Rango-importin beta, RanGTP-induced dissociation; 0.071% of 340,000 active; AID 540253; Potency, µM (top dose mostly 46.1 µM), for inactives: at the highest dose activity change, negative = inhibition; active means falling FRET ratio curve, often poorly fitted, with flat reads before Ran was added; inconclusive means other falling curves, or compound fluorescence or quenching; inactive means flat or rising ratio curve;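 further: potency means the concentration at half of the fitted maximal effect; % of control where 0% means no effect; nearly all actives have a fitted effect of over 45% in size; -100% = wells without RanGTP and RCC1; the record marks most hits as doubtful in a second field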
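Two FRET readings bracket the reaction: one 5 min after compound meets Rango–importin beta, another 45 min after RanGTP-RCC1 (0.6 uM Ran, 0.2 uM RCC1, 2 mM GTP) is added. Only the second defines inhibition.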
Rango complex inh = inhibitors of Rango-importin beta complex formation; Rango CFP/YFP FRET sensor + importin beta, 45 min; AID 540263; Potency, µM (highest dose often 92.2 µM), for inactives: at the top dose inhibition of complex formation; 0.031% of 340,000 active; Q14974; active = rising FRET ratio curve, often small or poorly fitted; inconclusive = mostly compound fluorescence or quenching in the first reads; inactive = flat curves in all reads;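 further: potency means the concentration at half of the fitted maximal effect; 0% = DMSO wells and 100% = buffer wells lacking importin beta; nearly all actives have a fitted effect of over 15% in size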
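Inhibition scored from the CFP 486 nm/YFP 530 nm FRET ratio 45 min after adding 0.125 microM importin beta to 50 nM Rango biosensor preincubated 5 min with compound (room temperature, PBS with DTT, Tween-20, BSA). No-importin wells as positive control.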
Active calls of the source: *; ? = inconclusive; nt = no result given; & = joins results of further samples.

SMILES | GLA inh pH 4.5 | miR-21 reporter | Rango dissoc inh | Rango complex inh
CC(C)(C)NC(=O)C(=O)N/N=C/c1ccc(F)cc1 | -3 | -11% | 9% | -1.2%
O=C(CNC(c1ccccc1)c1ccccc1)Nc1cc([N+](=O)[O-])ccc1Cl | 13 | 10% | 54% | 4.5%
N=c1oc2ccc3ccccc3c2cc1-c1nc(-c2ccccc2)cs1 | 2 | -3% | ? | ?
CCOC(=O)N1CCN(C(=O)CSc2nnc(COc3ccc(Cl)cc3)o2)CC1 | 2 | 1% | 15% | -0.1%
Cc1cccc(NC(=O)[C@@H]2CCCN2S(=O)(=O)c2ccc(Cl)cc2)c1 | nt | nt | -20% | 5.2%
CCN(CC)CCN1C(=O)C(=O)/C(=C(/O)c2cnn(-c3ccccc3)c2C)C1c1ccc(C)o1 (stereo not given) | -10 | -42% | -8% | ?
Cn1ncc(C#N)c1/N=C/N1CCOCC1 | -1 | 2% | 3% | -4.0%
COc1ccccc1CNC(=O)c1cccc(N(C)C)c1 | -10 | -27% | 0% | -2.9%
O=C(COC(=O)Cc1ccc(Cl)cc1)NCc1ccc2c(c1)OCO2 | nt | nt | -18% | -0.9%
CC1(C)CC(=O)CC(C)(C)N1OC(=O)c1ccncc1 | 0 | -2% | -12% | -1.6%
COc1cc(OC)c2c(-c3ccccc3)cc(=O)oc2c1C(CCN1CCOCC1)c1ccc2c(c1)OCO2 (stereo not given) | -14 | nt | 0% | 12%
CCOC(=O)CCCCCN(Cc1ccccc1)S(=O)(=O)c1ccc([N+](=O)[O-])cc1 | 1 | -4% | 12% | -1.8%
CCN(CC)CCn1c2ccccc2c(=O)c2c(O)ccc(O)c21 | nt | nt | -7% | -1.6%
COC(=O)C[C@H]1c2cc(C(F)(F)F)ccc2S(=O)(=O)N1C1CCCC1 | nt | nt | 1% | 0.5%
Cc1cc2oc(C(=O)Nc3nonc3C)c(C)c2cc1C | nt | -62% | 33% | -0.8%
COc1cccc(CN(C)C(=O)CCNC(=O)c2ccc(Br)cc2)c1 | nt | 1% | 11% | 3.9%
CN1CCN(C(=O)c2ccccc2-c2nc(-c3ccc(Cl)cc3)no2)CC1 | -10 | -9% | -17% | 5.4%
COc1ccc(CCNC(=O)COC(=O)c2ccc(N3CCCC3=O)cc2)cc1OC | -12 | 2% | 7% | -1.9%
CCOc1cc(S(=O)(=O)NC2CC(C)(C)NC(C)(C)C2)ccc1F | 2 | -6% | 7% | 2.3%
Cc1nn(CCCC(=O)Nc2ccc(Br)cc2F)c(C)c1[N+](=O)[O-] | 2 | -9% | 3% | 3.1%
CC(C)n1nnnc1SCC(=O)c1ccc2c(c1)OCCO2 | -30 | -31% | -10% | 0.7%
CCn1c(=O)c(=O)[nH]c2cc(C(=O)NC3CCCc4ccccc43)ccc21 (stereo not given) | 0 | 15% | 9% | 7.9%
C=C[C@]1(C)C[C@H]1[C@H](NP(=O)(c1ccccc1)c1ccccc1)c1ccccc1 | -7 | -3% | 24% | 0.2%
CN1C(=O)/C(=N\OC(=O)c2ccccc2Cl)c2ccccc21 | -22 | -2% | 8% | 0.0%
O=C(NCc1ccco1)/C(=C\c1cccnc1)NC(=O)c1ccccc1F | -1 | -6% | 35% | -3.0%
CCCC(=O)Nc1cc(C(=O)N(C)CC(OC)OC)ccc1S(=O)(=O)c1ccc(C)cc1 | nt | -1% | -6% | 0.5%
COc1cc(CN(C(=O)c2cc3ccccc3oc2=O)C2CCS(=O)(=O)C2)cc(OC)c1OC (stereo not given) | nt | -11%&-18% | -7% | -0.7%
CC1=C(C(=O)N2CCN(c3cc(C)ccc3C)CC2)C2(CCC(C)CC2)OC1=O (stereo not given) | -12 | 2%&-6% | nt | nt
COc1cccc(NC(=O)COC(=O)c2cc(=O)c3ccccc3o2)c1 | nt | nt | 1% | 4.5%
O=C(CN1CCOCC1)Nc1ccccc1C(=O)Nc1ccccc1 | nt | -6% | 25% | -3.8%
COc1ccc(S(=O)(=O)N2CCCCCC2)cc1C(=O)N1CCCCC1 | nt | 9% | -4% | -0.5%
CON1C(=O)C(=O)N(OC)C(C)(C)C1C (stereo not given) | -3 | 1% | 6% | 1.0%
CC(=O)NS(=O)(=O)c1ccc(NC(=O)COc2ccc(C(=O)c3ccccc3)cc2)cc1 | 3 | -2% | -18% | -0.1%
CN(CCOc1ccccc1)C(=O)c1cc(S(=O)(=O)N2CCCCC2)ccc1Cl | nt | nt | -14% | -2.9%
COc1ccc(/C=C2/Sc3ccc(C(=O)NCCN4CCCCCC4)cc3NC2=O)cc1 | nt | 0% | -3% | 1.2%
CCN(C#N)c1nc(N(C)C)nc(N(C)C)n1 | 1 | 2% | -5% | 0.9%
O=C(CCCC(=O)OCC(=O)c1ccc(Cl)cc1)NC1CCCCC1 | nt | 0% | -5% | -1.3%
CCC(=O)c1cc(F)c(N2CCN(C(=O)Cc3ccccc3)CC2)cc1C | -3 | 7% | 19% | 0.2%
Cc1nn(C)c(Oc2cccc(Cl)c2)c1C(=O)Nc1ccc(F)cc1 | -5 | 0% | -2% | 3.5%
CN(C)CCNC(=O)Cn1c(=O)c2cccn2c2ccc(F)cc21 | nt | -3%&13% | 13% | 1.8%
CN(CC(=O)Nc1ccc(F)cc1)C(=O)CN1C(=O)c2ccccc2C1=O | nt | nt | -11% | -0.2%
COc1cn(-c2ccccc2)nc1C(=O)NCc1ccc(C)cc1 | nt | -9% | -9% | -2.1%
O=C(Nc1nnc(SCc2ccc(Cl)cc2)s1)C1CC(=O)N(Cc2ccccc2)C1 (stereo not given) | -1 | -6% | 1% | 1.4%
COc1cccc(NC(=S)N(Cc2ccccn2)Cc2ccccc2Cl)c1 | 5 | 0% | 1% | -7.1%
Cc1cccn2c(=O)c3cc(C#N)c(=NC(=O)c4cccs4)n(CC(C)C)c3nc12 | -3 | 0% | ? | ?
O=C(CN1CCN(c2cccc(Cl)c2)CC1)NC1CCCc2ccccc21 (stereo not given) | nt | 0% | 7% | 0.4%
COc1ccc(CNC(=O)Cc2c(C(=O)O)[nH]c3ccccc23)c(OC)c1 | nt | -1% | -17% | 1.0%
CCS(=O)(=O)N1CCCC(C(=O)NCCCN(C)Cc2ccccc2)C1 (stereo not given) | 1 | -8% | -1% | -2.9%
CCCC1=NN2C(=N)/C(=C\c3ccc(SCc4ccco4)o3)C(=O)N=C2S1 | 5 | -9% | ? | ?
O=C(Oc1ccc2cc(Br)ccc2c1)c1cccnc1 | -28 | -1% | 0% | -3.7%
Cc1cccc(C)c1OCC(=O)N/N=C/c1cc2c(cc1[N+](=O)[O-])OCO2 | -9 | 1% | -9% | -0.4%
COC(=O)c1ccc(Nc2nc(-c3ccncc3)nc3ccccc23)cc1 | nt | -4% | 1% | 3.9%
Cc1cccc(N2CCN(C(=O)c3ccc(NS(=O)(=O)c4c(C)noc4C)cc3)CC2)c1C | -1 | -8% | -9% | 0.3%
C=CCn1c(SCC(C)=O)nnc1-c1ccc2ncccc2c1 | -1 | -7% | 21% | 1.7%
Cc1ccc(N/C=C(\C#N)c2ccc(OCCCF)cc2)cc1 | 4 | -24% | -2% | -0.9%
CN(C)CCCNC(=S)Nc1ccc(-c2ccccc2)cc1 | 0 | -14% | 5% | -2.8%
CCOc1ccc(C(=O)Nc2nccs2)cc1[N+](=O)[O-] | 4 | -53% | -7% | -1.3%
FC(F)(F)COc1cc(-c2nnc(SCc3ccccc3)n2Cc2ccco2)cc(OCC(F)(F)F)n1 | ? | 11% | 0% | -0.9%
CCOc1ccccc1NC(=O)c1cccc(NC(=O)CC(c2ccccc2)c2ccccc2)c1 | 0 | 9% | -11% | -0.6%
CCCNC(=O)Nc1ccc(F)c(Cl)c1 | -11 | -12% | 1% | 1.0%

(further entries)
SMILES | GLA inh pH 4.5 | miR-21 reporter | Rango dissoc inh | Rango complex inh
CC1CCCCC1NC(=O)COC(=O)c1ccc2ncsc2c1 (stereo not given) | nt | nt | -3% | -0.5%
CNC(=O)c1cc(OCC(F)(F)F)ccc1OCC(F)(F)F | -3 | -1% | -1% | 0.1%
N#C/C(=C\c1ccc2c(c1)OCCO2)C(=O)Nc1nccs1 | nt | -9% | -21% | ?
Cc1ccc(CNC(=O)C2CCC(=O)N(Cc3ccccc3F)C2)s1 (stereo not given) | nt | -17% | -11% | 0.2%
Cc1c(CCC(=O)O)c(=O)oc2cc(OCc3ccccc3F)ccc12 | nt | -22% | 18% | 5.9%
CC(=O)c1c(C)[nH]c(C(=O)Nc2cc(S(=O)(=O)N(C)C)ccc2C)c1C | 10 | -1% | -1% | -1.3%
O=C(NCc1cc2ccccc2[nH]1)c1ccccc1F | nt | -36% | 0% | 4.2%
C/C(=N\NC(=O)COc1ccc(C(C)(C)C)cc1)c1ccccc1 | -18 | -15% | 8% | 0.7%
CNC(=S)N1CCN(C(c2ccccc2)c2ccccc2)CC1 | -2 | 5% | 7% | -0.3%
CCC(NC(=O)C1CCCC1)c1ccccc1 (stereo not given) | nt | nt | -3% | 1.6%
Cc1cccc(C)c1NC(=O)C1(N(Cc2ccco2)C(=O)Cn2nnnc2N)CCCCC1 | 6 | -4% | 28% | -7.0%
COc1cccc(/C=N/N2CCN(Cc3ccccc3)CC2)c1O | nt | -24% | 0% | 2.3%
COc1ccc(CCN2C(=NC(=O)CC(C)C)SC3CS(=O)(=O)CC32)cc1OC (stereo not given) | -1 | -1% | 3% | ?
CCc1ccccc1NC(=S)N1CCN(c2cccc(OC)c2)CC1 | nt | -2% | -1% | -0.9%
COc1ccc(-c2cc(=O)oc3cc(OC(=O)C4CCCCC4)c(Cl)cc23)cc1 | 7 | 17% | ? | ?
Cc1cccc(Nc2nc3c(s2)CCCC3)c1 | 5 | -75% | -6% | 0.2%
CC(C(=O)Nc1ccc(O)cc1C(=O)O)N1C(=O)/C(=C\c2cccs2)SC1=S (stereo not given) | nt | -4% | 5% | 3.9%
O=C(COC(=O)C1CC(=O)N(Cc2ccccc2)C1)Nc1ccc(Cl)cc1F (stereo not given) | 3 | 5% | 8% | 4.3%
COc1ccccc1/C=N/OC(=O)c1ccc(F)cc1 | 4 | 3% | -5% | -1.8%
CN1C(=O)c2ccc(NC(=O)CCS(=O)(=O)c3ccccc3)cc2C1=O | 2 | 0% | -13% | 0.5%

Six records drawn at random from the list so far, as already listed:
SMILES | GLA inh pH 4.5 | miR-21 reporter | Rango dissoc inh | Rango complex inh
CC(=O)c1c(C)[nH]c(C(=O)Nc2cc(S(=O)(=O)N(C)C)ccc2C)c1C | 10 | -1% | -1% | -1.3%
CC1CCCCC1NC(=O)COC(=O)c1ccc2ncsc2c1 (stereo not given) | nt | nt | -3% | -0.5%
N#C/C(=C\c1ccc2c(c1)OCCO2)C(=O)Nc1nccs1 | nt | -9% | -21% | ?
CN1C(=O)c2ccc(NC(=O)CCS(=O)(=O)c3ccccc3)cc2C1=O | 2 | 0% | -13% | 0.5%
CNC(=S)N1CCN(C(c2ccccc2)c2ccccc2)CC1 | -2 | 5% | 7% | -0.3%
CCc1ccccc1NC(=S)N1CCN(c2cccc(OC)c2)CC1 | nt | -2% | -1% | -0.9%

(next part)
SMILES | GLA inh pH 4.5 | miR-21 reporter | Rango dissoc inh | Rango complex inh
CCOc1cc(Br)c(CC(=O)NC2CCCCCC2)cc1OCC | nt | 8% | -18% | 0.9%
O=C(NCC1CC1)[C@@H]1C[C@H]1[C@@H](NP(=O)(c1ccccc1)c1ccccc1)c1ccccc1 | 11&-3 | 1% | -5% | 0.8%
O=C(CCNS(=O)(=O)c1cccc2nonc12)NC1CCCCC1 | -1 | -1% | 2% | 0.9%
C=CCNC(=O)/C=C/c1c(F)cccc1Cl | -2 | -53% | -8% | ?
CCOc1ccc(N2C(=O)/C(=C/c3cccs3)N(CC(=O)OC)C2=S)cc1 | -5 | -4% | -2% | ?
Cc1cccc2sc(NC(=O)C3CC3)nc12 | nt | -27% | -11% | 1.4%
CC(=O)Nc1c(O)nc(SCC(=O)Nc2ccc(C(C)=O)cc2)[nH]c1=O | -4 | -42% | -13% | 0.7%
CCOC(=O)C1(Cc2cccc(OC)c2)CCCN(Cc2nccn2CC)C1 (stereo not given) | -16 | 17% | 1% | 3.2%
CCOC(=O)C1=C(C)NC(C)=C(C(=O)OCC)C1c1cn(-c2ccccc2)nc1-c1ccco1 | 3 | -4% | 9% | 2.0%

High-throughput results from PubChem BioAssay.

A portion of the library, so the mix of outcomes need not match the whole.
